CHT PAM – allosteric activators of human choline transporter CHT; CHT-expressing cells, membrane potential dye, choline EC20; active compounds read high; LV-AA mutant CHT in HEK293 cells; 0.49% of 310,000 active; Q9GZV3; B-score at 10 µM;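 active = initial fluorescence not abnormally high and integrated response B-score, plate-corrected, over 3 SD above library mean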
Target sequence (Q9GZV3 whole entry, looked up): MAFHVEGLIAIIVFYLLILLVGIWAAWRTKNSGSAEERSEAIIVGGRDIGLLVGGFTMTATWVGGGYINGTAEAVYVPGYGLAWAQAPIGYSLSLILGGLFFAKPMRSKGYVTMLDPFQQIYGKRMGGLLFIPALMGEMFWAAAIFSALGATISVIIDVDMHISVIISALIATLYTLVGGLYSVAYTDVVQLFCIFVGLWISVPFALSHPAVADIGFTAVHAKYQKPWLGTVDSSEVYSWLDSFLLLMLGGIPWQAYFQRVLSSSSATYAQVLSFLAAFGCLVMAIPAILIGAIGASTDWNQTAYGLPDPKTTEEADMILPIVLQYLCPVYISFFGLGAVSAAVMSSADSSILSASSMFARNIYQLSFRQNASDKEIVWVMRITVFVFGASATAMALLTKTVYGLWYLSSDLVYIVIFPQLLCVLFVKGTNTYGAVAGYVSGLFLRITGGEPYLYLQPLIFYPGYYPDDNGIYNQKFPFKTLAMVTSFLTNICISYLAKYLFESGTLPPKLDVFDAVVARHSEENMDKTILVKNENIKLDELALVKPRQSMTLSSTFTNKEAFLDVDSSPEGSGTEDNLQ
Calls only; i = inactive.

| SMILES | CHT PAM |
| --- | --- |
| Cc1ccc2c(c1)N(CCC(=O)N1CCC3(CC1)OCCO3)C(=O)CO2 | i |
| COc1ccc(C(=O)N2CCCC2=O)cc1 | i |
| Cn1c(O)c(/C=N/NC(=O)c2ccncc2)c(=O)[nH]c1=S | i |
| O=C(COc1ccccc1F)N1CCN(CCN2C(=O)c3cccc4cccc(c34)C2=O)CC1 | i |
| CCCCOCCCn1c(N)c(C(=O)OC(C)COC)c2nc3ccccc3nc21 (stereo not given) | i |
| COc1ccc(C(CNC(=O)Cc2ccc(Cl)c(Cl)c2)N2CCCCC2)cc1 (stereo not given) | i |
| O=C1NC(=O)C(=CN2CCc3ccccc32)C(=O)N1 | i |
| O=C(O)c1ccc(N=Cc2c(O)[nH]c(=O)[nH]c2=O)cc1 | i |
| CCCCOC(=O)C1=C(N)OC2=C(C(=O)CCC2)[C@]12C(=O)N(C)c1ccccc12 | i |
| COc1cc(/C=C2\C(=O)NC(=O)N(c3ccccc3)C2=O)cc(OC)c1OC | i |
| O=S1(=O)CCN(CCc2c[nH]c3ccccc23)CC1 | i |
| COC(=O)C1=C(c2cccc(OC)c2OC)C[C@@H]2CC[C@H]1N2C(=O)NCc1ccc(F)cc1 | i |

Sorted by SMILES length (smallest number first): 3 of the compounds above
| SMILES | CHT PAM |
| --- | --- |
| O=C1NC(=O)C(=CN2CCc3ccccc32)C(=O)N1 | i |
| O=C(O)c1ccc(N=Cc2c(O)[nH]c(=O)[nH]c2=O)cc1 | i |
| CCCCOCCCn1c(N)c(C(=O)OC(C)COC)c2nc3ccccc3nc21 (stereo not given) | i |

In a second layout: four of the compounds above
mol: Cc1ccc2c(c1)N(CCC(=O)N1CCC3(CC1)OCCO3)C(=O)CO2
- CHT PAM = i
mol: COc1ccc(C(=O)N2CCCC2=O)cc1
- CHT PAM = i
mol: Cn1c(O)c(/C=N/NC(=O)c2ccncc2)c(=O)[nH]c1=S
- CHT PAM = i
mol: O=C(COc1ccccc1F)N1CCN(CCN2C(=O)c3cccc4cccc(c34)C2=O)CC1
- CHT PAM = i

Next part.
| SMILES | CHT PAM |
| --- | --- |
| CCC(C)N1CCN(C(=O)COc2ccc3ccccc3c2)CC1 (stereo not given) | i |
| CCCCCCn1c(O)c(C=NC2CCCCC2N)c(=O)[nH]c1=O (stereo not given) | i |
| CN1C(=O)N(C)C(=O)C(CCc2ccncc2)(Cc2ccc3c(c2)OCO3)C1=O | i |
| O=C(O)CNC1c2ccccc2CSc2ccccc21 (stereo not given) | i |
| Nc1c(C(=O)NCc2ccco2)c2nc3ccccc3nc2n1Cc1ccc(F)cc1 | i |
| c1ccc(CN2CCN(Cc3ccc4ccccc4c3)CC2)cc1 | i |
| C=Cn1ccnc1P(=S)(c1c(C)nn(-c2ccccc2)c1C)c1nccn1C=C | i |
| CCN1C(=O)C(=C2C=C(C)OC(C)=C2)C(=O)N(CC)C1=S | i |
| C=CCOC(=O)COc1cc(C)cc2oc(=O)c3c(c12)CCC3 | i |
| CCOc1cc(/C=C2\C(=O)NC(=O)N(CCc3ccc(F)cc3)C2=O)ccc1O | i |
| CCOc1cc(C2NCc3ccccc3-n3cccc32)ccc1O (stereo not given) | i |
| Cc1cc(/C=C2\C(=O)NC(=O)N(c3ccc(Cl)cc3)C2=O)c(C)n1C | i |
| CCOC(=O)c1cc(C(O)(C(=O)OC)C(F)(F)F)c(/N=C/N(C)C)o1 (stereo not given) | i |
| O=c1[nH]c(=O)n(Cc2ccco2)c(O)c1/C=N/N1CCCCCC1 | i |
| O=C(NCC(c1cccnc1)N1CCOCC1)Oc1ccccc1 (stereo not given) | i |
| Cc1ccc(N(C)C(=O)Oc2cccc3ccc(C)nc23)cc1 | i |
| CN(C)c1ccc(C=C2C(=O)NC(=O)NC2=O)cc1[N+](=O)[O-] | i |
| O=c1c2ccccc2nc(-c2ccco2)n1-c1ccc(Br)cn1 | i |
| O=P(O)(Oc1ccccc1)OC(c1ccccc1)C(F)(F)C(F)(F)F (stereo not given) | i |
| c1ccc(-c2nnc(C3CC(c4cccnc4)=NO3)o2)cc1 (stereo not given) | i |
| CN(C)P(=S)(Nc1ccccc1)C(Cl)(Cl)Cl (stereo not given) | i |

Rewritten as labelled records: entries from further up
> O=C(NCC(c1cccnc1)N1CCOCC1)Oc1ccccc1 (stereo not given)
  CHT PAM: i

> CN(C)c1ccc(C=C2C(=O)NC(=O)NC2=O)cc1[N+](=O)[O-]
  CHT PAM: i

Only part of the results is shown; most or all hits stand in other tables.
